# NPYLR7 ag: agonists of mosquito NPYLR7 receptor, primary screen, cell-based, Aedes aegypti, calcium fluorescence, mosquito biting behavior; activation, % at 10 µM; AID 1259423, 2018; Aedes aegypti neuropeptide Y-like receptor 7 (NPYLR7); 0.15% of 270,000 active; HEK293T NPYLR7/Galpha15, GCaMP6s calcium fluorescence; in the data active = activation above about 40%;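 also: 0% = vehicle and 100% = reference agonist at the receptor; some compounds past the cut are filed as inactive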
# NPYLR7 ag max-min: second read-out of NPYLR7 ag, no call of its own (marks repeat the call); activation, %; measured here: Max-Min RFU normalised activation; some inactives read as strong as hits;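 span of the calcium signal over five minutes; 0% = vehicle and 100% = native peptide agonist; compound fluorescence can raise it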
# * hit, by the source's call; & = joins results of further samples. The list is partial (hit frequency here may not be typical).
# Every second line gives: NPYLR7 ag, NPYLR7 ag max-min
> COc1ccc2oc(=Nc3ccccc3F)c(C(=O)NC(C)=O)cc2c1
  -6, -9
> COc1c[nH]c(CN2CCCC(N(C)CCc3ccccc3)C2)cc1=O (centres undefined)
  5, 4
> Cc1ccc(S(=O)(=O)NCCc2nc(-c3ccncc3)cs2)cc1
  -3, -4
> CCCCCn1c(C2CC(=O)N(c3ccc(OC)cc3)C2)nc2ccccc21 (centres undefined)
  4, 12
> O=C(NCCCN1CCN(c2ccccc2)CC1)NCc1ccc(Cl)cc1
  -1, -4
> Cc1ccc(CN2CCN(C(=O)c3csc(C)n3)CC2=O)cc1
  1, -2
> CCCn1c(=O)c2c(nc3n2CCCN3c2ccc(C)c(C)c2)n(C)c1=O
  8, 7
> C=CCN1CC(c2nc3ccccc3n2CCCOc2c(C)cccc2C)CC1=O (centres undefined)
  15, 23
> CC(C)COC(=NC(=O)c1cccs1)N(C)C1CCN(C)CC1
  -5, 5
> COc1ccc(-c2nccc(N3CCCC(O)C3)n2)cc1C (centres undefined)
  5, 3
> Cc1nc2cc(F)cc(C(=O)Nc3ccc(Cl)c(C(N)=O)c3)c2nc1C
  4, -1
> CCn1c(CCC(=O)NC2=NCCS2)nc2cc(S(=O)(=O)N(C)C)ccc21
  0, -2
> Cn1cc(CNC2CCOCC2)c(-c2cc3ccccc3o2)n1
  -4, -5
> O=C(C1CCC(C(=O)N2CCc3ccccc32)CC1)N1CCc2ccccc21 (centres undefined)
  24, 26
> CCC1SC(c2ccccc2C)N(CCN(C)C(=O)Nc2ccccc2OC)C1=O (centres undefined)
  1, 5
> CCC(C)NC(=O)c1c(C(F)(F)F)nn(C2CCCN(C)C2)c1C (centres undefined)
  12, 1
> COCCn1cc(C(=O)Nc2cccc(OC)c2)c2nn(-c3ccccc3)c(=O)c-2c1
  7, 9
> Cc1nc2ncc3c(=O)n(Cc4ccc5c(c4)OCO5)ccc3n2n1
  1, 4
> Cc1nc2c(c(=O)[nH]1)CCN(C(=O)c1cnc(N3CCCCC3)nc1C)C2
  4, 2
> COc1ccccc1Oc1ncccc1CNC(=O)CSC
  2, -5
> COCC(=O)N1CCCN(Cc2ccnc(C(C)C)n2)CC1
  -1, 9
> Cn1cc(-c2cc3c(Nc4cccc(OC(F)(F)F)c4)nccc3n2C)cn1
  15, -1
> CN1CCN2CCN(C(=O)CCCOc3ccccc3)CC2C1=O (centres undefined)
  0, -3
> CCCc1nc(C)cc(N2CCCn3nc(C(=O)O)cc3C2)n1
  0, -4
> Cc1c(CN2CCCC2c2ccc(F)cc2)c(=O)n(-c2ccccc2)n1C (centres undefined)
  28, 19
> O=C(c1cc2n(n1)CCN(Cc1ccc(C(F)(F)F)cc1)C2=O)N1CCN(C(=O)c2ccco2)CC1
  16, 4
> CC(=O)N1CCN(c2cc3c(cc2F)c(=O)c(C(=O)O)cn3C2CC2)CC1
  5, 6
> CSc1cccc(NC(=O)c2cccc(S(=O)(=O)N3CCOCC3)c2)c1
  2, -3
> COc1cccc(CN2C(=O)c3cnc(C)nc3C[C@H]2C)c1
  4, 1
> COc1ccc(-n2c(C)cn3c4c(=O)n(C(C)C(C)=O)c(=O)n(C)c4nc23)cc1Cl (centres undefined)
  5, 0
> CC1(C)NC(=O)N(CCCC(=O)NCCc2ccc(Cl)cc2Cl)C1=O
  1, 0
> CCc1ccc(S(=O)(=O)NCCc2sc(-c3cccc(F)c3)nc2C)s1
  6, 5
> O=c1oc2ccc(Cl)cc2cc1-c1nnc(Nc2ccc(F)cc2)s1
  0, -3
> CC1(Cc2ccccc2C#N)C(=O)Nc2ccccc21 (centres undefined)
  -1, 2
> O=C1CC[C@@H](CN(Cc2ccncc2)C(=O)c2cn(C3CCCCCC3)nn2)N1
  16, 12
> O=C1NCCN(C(=O)c2ccc(-n3cccc3)cc2)C1Cc1ccccc1 (centres undefined)
  -7, -12
> O=C(NC1CCN(CN2C(=O)CN(/C=C/c3ccccc3)C2=O)CC1)c1ccccc1
  -3, -7
> CCn1cc(C(=O)N2CCN(c3ccccc3OC)C(C)(C)C2)c(C)n1
  12, 9
> CON1C(=O)c2ccccc2NC12CCN(C(=O)c1cnc(C)cn1)CC2
  0, 14
> O=C(c1ccccc1Oc1ccccc1)N1CCC(c2ccccc2)CC1
  22, 4
> O=C(NCc1ccc(N2CCCC2)cc1)Nc1ccc(F)cc1
  0, -1
> CCN(c1ccc(C(=O)CN2C(=O)NC(C)(c3ccc(C#N)cc3)C2=O)cc1)S(C)(=O)=O (centres undefined)
  25, 12
> COCCC1CCCCN1C(=O)COc1ccc(N2CCN(c3ccccn3)CC2)nn1 (centres undefined)
  5, 4
> CCCc1nn(C)c(CCC)c1C(=O)NC1CC1
  29, 29
> COc1cccc(C(=O)Nc2ccc(Oc3ccc(F)cc3)nc2)c1OC
  -1, -1
> CCOCCN1N=C(C)C(C)n2c1nc1c2c(=O)n(CC=Cc2ccccc2)c(=O)n1C (centres undefined)
  1, 7
> O=C(NCc1noc(C2CCCO2)n1)c1cnn2c1CCCC2 (centres undefined)
  6, 5
> Cc1ccc(OCCn2c(SCc3nc4ccccc4[nH]3)nc3ccccc32)cc1
  -10, -13
> Cc1nn2c(-c3ccccc3)c(C#N)nnc2c1-c1ccccc1
  -14, -18
> O=C(Nc1ccc(Cn2cncn2)cc1)c1cn2cc(Cl)ccc2n1
  -3, -5
> O=C(NC(C(=O)NC1CC1)C1CCN(C(=O)c2ccco2)CC1)c1cccs1 (centres undefined)
  -7, -4
> O=C(NCc1cccc2ccccc12)NCC(c1ccsc1)N1CCOCC1 (centres undefined)
  16, 5
> Cc1nn(Cc2cccc(F)c2)c(=O)c2c1cnn2-c1ccc(F)cc1
  -6, -5
> COc1ccc(-c2onc3c2CCc2ccccc2-3)cc1NC(=O)[C@H](C)OC(C)=O
  -1, -2
> CCOc1ccc(C(=O)N2CCN(c3ccc(-n4nc(C)cc4C)nn3)CC2)cc1
  -3, -6
> CCCCc1nc(Cl)c(CN2CCCC(N3CCCC3=O)C2)[nH]1 (centres undefined)
  5, 2
> Fc1ccc2c(c1)[C@H]1OCC[C@H]1[C@@H](c1ccco1)N2
  1, -2
> CC(NC(=O)c1cc(NC(=O)Nc2ccc(C(F)(F)F)cc2)ccc1N1CCCCC1)c1ccccc1 (centres undefined)
  -13, -16
> Cc1sc(NC(=O)CN2CCN(C(=O)c3ccc(=O)[nH]c3)CC2)c(C)c1C
  1, 0
> CC(C)NS(=O)(=O)c1ccc2c(c1)Cc1cc(S(=O)(=O)NC(C)C)ccc1-2
  8, 9

# (continued)
# Every second line gives: NPYLR7 ag, NPYLR7 ag max-min
> O=C(Cc1c[nH]c2ccccc12)NCc1cccnc1N1CCOCC1
  6, 2
> Brc1ccc(C2CC(c3ccccc3)=Nc3ncnn32)cc1 (centres undefined)
  6, -2
> COc1cc2c(cc1OC)C(c1ccccc1)=NCC2
  2, 3
> Cc1nonc1C(=O)N(C)CCCc1cnn(C)c1
  -4, -12
> CCOCCCNC(=O)c1cc(NC(=O)Cc2ccc(F)cc2)ccc1N1CCN(c2ccccc2OC)CC1
  2, 0
> Cc1onc(-c2ccccc2)c1C(=O)N1CCCC(Nc2ccc3c(c2)OCCO3)C1 (centres undefined)
  7, 5
> O=C(NCc1nnc(SCC(=O)N2CCc3ccccc32)n1-c1ccc(F)cc1)c1ccco1
  -5, -1
> CCNS(=O)(=O)c1ccc(Nc2c(C(=O)OCC)cnc3cc(C(F)(F)F)ccc23)cc1
  2, 1
> O=C(c1ccncc1)N1CCCN(CCCN2CCOCC2)CC1
  2, 1
> O=C1NCCN2CCN(C(=O)c3ccc(-c4noc(C5CC5)n4)cc3)CC12 (centres undefined)
  -2, -4
> CC(C)=CCCC1=NN(C=O)C(C)(CCC=C(C)C)C1 (centres undefined)
  5, 0
> CC(C)n1cnnc1SCC(=O)N1CCN(c2nccs2)CC1
  -2, -2
> Cc1ccsc1C(O)c1nnc(Nc2cccc(Oc3ccccc3)c2)s1 (centres undefined)
  8, 6
> O=C(Nc1ccc(N2CCC(Cc3ccccc3)CC2)c(C(=O)NCc2cccnc2)c1)c1cccc(C(F)(F)F)c1
  17, 12
> CCC1CN(C(=O)c2ccc[nH]c2=S)CCO1 (centres undefined)
  3, 15
> COc1ccccc1N1CCN(c2nc(N3CCOCC3)c3cnn(C)c3n2)CC1
  5, 3
> C=CC(=O)N1CCN(c2nc3ccccc3nc2C(=O)OCC)CC1
  12, 3
> O=C(NCCCNC(=O)[C@H]1CCCN1S(=O)(=O)c1ccc([N+](=O)[O-])cc1)c1ccccc1
  3, 13
> Cc1nc2cc(NC(=O)N[C@@H](C)c3ccccc3)ccc2s1
  -6, -13
> CC(C)c1noc([C@@H]2Cc3nc[nH]c3CN2C(=O)COCC(=O)O)n1
  -9, -18
> Cc1c(Br)c([N+](=O)[O-])nn1CC(=O)Nc1ccc(Cl)cc1Cl
  -1, -3
> O=C(/C=C/c1cc(Cl)cc(Cl)c1)NCC(O)c1ccncc1 (centres undefined)
  13, -2
> CC1(C(=O)Nc2nccs2)CCN1C(=O)Cc1ccc(-c2ccccc2)cc1 (centres undefined)
  5, 2
> Cc1ccc(-c2ccnc(-c3ccccc3CN3CCOCC3)n2)c(C)n1
  -2, -6
> Cc1nnc(CN2CCCCC2CCc2cccc(O)c2)o1 (centres undefined)
  12, 8
> Cc1ccc(C)c(-n2cc(CN(C)Cc3nnc(-c4ccccc4)o3)c(-c3ccccc3)n2)c1
  -7, -8
> COc1ccc(CCN2CC3=C(C2=O)C(c2ccc(F)cc2)NC(=O)N3C)cc1 (centres undefined)
  5, 3
> O=C(Nc1ccc(Oc2ccccc2)cc1)C1CCCCC1C(=O)N1CCc2c([nH]c3ccccc23)C1 (centres undefined)
  32, 10
> C=CCCS(=O)(=O)NC1CCN(Cc2ccc(Cl)cc2)CC1
  2, -11
> CCN(Cc1ccc2c(c1)OCCO2)C(=O)c1cc(C(C)C)[nH]n1
  2, -1

# Rewritten tab-delimited: entries from further up
SMILES	NPYLR7 ag	NPYLR7 ag max-min
CCc1ccc(S(=O)(=O)NCCc2sc(-c3cccc(F)c3)nc2C)s1	6	5
COc1c[nH]c(CN2CCCC(N(C)CCc3ccccc3)C2)cc1=O (centres undefined)	5	4
Cc1ccc(S(=O)(=O)NCCc2nc(-c3ccncc3)cs2)cc1	-3	-4
Cc1nc2cc(F)cc(C(=O)Nc3ccc(Cl)c(C(N)=O)c3)c2nc1C	4	-1

# Carrying on:
# Every second line gives: NPYLR7 ag, NPYLR7 ag max-min
> Cc1ccc(-c2[nH]ncc2CNCc2cc(C(F)(F)F)ccc2F)cc1C
  4&-5, 1&-7
> COC(=O)C1=C(C)N(C)C(C)=C(C(=O)OC)C1c1ccc(OCc2ccccc2)cc1
  -9, -14
> C=CCn1cc(C#N)c2c(c1=S)CCCC2
  7, 7
> COCc1cccc(CNC(=O)c2nccc3ccccc23)c1
  11, 4
> CCCc1nnc2sc(-c3cc(C(C)C)[nH]n3)nn12
  -11, -21
> CCOc1ccc(-n2c(C(CC)N(CCCOC)C(=O)c3ccc(Cl)cc3)nc3ccccc3c2=O)cc1 (centres undefined)
  3, 0
> CC(C)c1nc(NC(=O)c2ccc(CNC(=O)C(C)(C)C)cc2)n[nH]1
  8, -7
> O=C(NCCN1CCOCC1)c1cccc(CC2CCNCC2)c1
  -4, -11
> CSc1nc(C)c(CC(=O)O)s1
  3, 10
> COc1cc(CNC(=O)c2c(C)noc2-c2ccc(C(C)(C)C)cc2)cc(OC)c1
  -3, 1
> Cc1nnc(Sc2ccc(NC(=O)NC(CN3CCCC3=O)c3ccccc3)c(C)c2)s1 (centres undefined)
  2, 15
> Cc1noc(C)c1N(C)Cc1cn2c(C)cccc2n1
  8, 4
> COc1ccccc1CC1(C)C(=O)Nc2ccc(-c3cccc(C(F)(F)F)c3)cc21 (centres undefined)
  1, 7
> CC(=O)Oc1ccccc1Cn1c(C)c(C(=O)NCc2ccc(F)cc2)sc1=O
  19, 11
> CCc1cn[nH]c1C1CCN(C(=O)c2cnc(C(C)C)nc2C)CC1
  -1, 2
> O=C1CSC(=Nc2nccs2)N1
  4, 4
> COc1cc(C(=O)N2CCN(c3ncccc3C(=O)NCc3ccc4c(c3)OCO4)CC2)cc(Cl)n1
  14, 6
> CC(=O)Nc1nc(CN2CCCC2Cc2cccc(F)c2)cs1 (centres undefined)
  3, 2
> CC1=C(C(=O)NCc2ccccc2)C(c2cccn2C)n2nnnc2N1 (centres undefined)
  0, 55
> CCc1ncc(C(=O)NCC(c2cccnc2)N2CCCC2)cn1 (centres undefined)
  15, 4
> COc1ccc(-c2cnc(SCCNC(=O)C(C)(C)C)[nH]2)cc1
  0, 1
> Cc1nnc(SCC(=O)NN2C(=O)NC3(CCC(C)CC3)C2=O)n1C (centres undefined)
  -15, -15
> COc1ccccc1C(=O)C1CCCN(C(=O)Cc2cc(OC)c(OC)c(OC)c2)C1 (centres undefined)
  2, -1
> Cc1cc(C)cc(COc2coc(CN3CCN(S(=O)(=O)c4ccccc4C(F)(F)F)CC3)cc2=O)c1
  0, 0
> Cc1c(C(C)NCc2cnc(N3CCOCC3)s2)cnn1-c1ccccc1 (centres undefined)
  -2, -9
> CN(CC1CCCN(CCc2ccc(Cl)cc2)C1)C(=O)c1ccc(=O)[nH]c1 (centres undefined)
  6, 1
> Cc1cccc(N2CCN(CC(O)COc3ccc(C#N)cc3)CC2)c1C (centres undefined)
  4, 3
> CNc1ncnc2c1ncn2[C@@H]1O[C@H](CO)[C@H](O)C1O (some centres undefined)
  3, -49
> Cc1ccc(C)n1C(C)C1CC2CCC1C2 (centres undefined)
  4, 2

# Quoted from the listing.
# Reading of COc1cc(C(=O)N2CCN(c3ncccc3C(=O)NCc3ccc4c(c3)OCO4)CC2)cc(Cl)n1 under NPYLR7 ag max-min: 6
# Reading of Cc1c(C(C)NCc2cnc(N3CCOCC3)s2)cnn1-c1ccccc1 (centres undefined) under NPYLR7 ag: -2
# Reading of Cc1ccc(C)n1C(C)C1CC2CCC1C2 (centres undefined) under NPYLR7 ag: 4
# Reading of CC1=C(C(=O)NCc2ccccc2)C(c2cccn2C)n2nnnc2N1 (centres undefined) under NPYLR7 ag max-min: 55
# Reading of O=C1CSC(=Nc2nccs2)N1 under NPYLR7 ag: 4

# Source: PubChem (Fisher Drug Discovery Resource Center)
